Compound activity deposited in PubChem BioAssay by National Center for Advancing Translational Sciences (NCATS).
PINK1 expr mod = A Quantitative High throughput Screen to Identify Chemical Modulators of PINK1 Expression. PINK1 immunofluorescence, high-content cytometry, 24 h. AID 624263, 2012. 410,000 tested, 0.2% active. Potency, µM (series often up to 76.6 µM), for the others: at the highest dose activation (PINK1 increase), usual class: activators; active = well fitted activation curve with a large enough effect; inconclusive = small, poorly fitted or top-dose-only effect; inactive = flat fitted curve, though single readings scatter; cell line not stated here;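 also: potency is read from the fitted curve at half-maximal effect; % of control where 0% means no effect; nearly all actives have a fitted effect of over 65% in size; a mitochondrial uncoupler was the plate control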
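PINK1 protein level read as immunofluorescence by microplate cytometer in a fixed, stained stable cell line after 24 h exposure to five compound concentrations, with CCCP as control.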
ClpP mod = qHTS Assay for Activators of ClpP | ATP-dependent Clp protease proteolytic subunit (Bacillus subtilis (strain 168)), P80244 | purified B. subtilis ClpP, FRET peptide cleavage, 20 min | Potency, µM (top dose mostly 57.5 µM), for inactives: top-dose activity change, negative = active | 340,000 tested, 1.9% active | AID 651965, 2013; active = well fitted falling curve with a large enough effect; inconclusive = small, poorly fitted or top-dose-only effect; inactive = no such curve, though single readings can be large or run the other way; also: potency is read from the fitted curve at half-maximal effect; the source files actives as falling curves though it sought activators and does not explain the sign; nearly all actives have a fitted effect of over 65% in size; many hits overshoot -100%
Target sequence (P80244 whole entry, looked up): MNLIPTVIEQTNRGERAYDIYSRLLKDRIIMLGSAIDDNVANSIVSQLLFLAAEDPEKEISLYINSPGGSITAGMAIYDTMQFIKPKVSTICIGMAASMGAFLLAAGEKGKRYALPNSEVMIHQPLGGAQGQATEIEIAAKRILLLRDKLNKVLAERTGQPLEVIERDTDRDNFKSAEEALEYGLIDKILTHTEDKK
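FRET quenching reversal measured ClpP activation: 10 microg/mL B. subtilis ClpP at pH 8 with the FRET-FV decapeptide, read at 430 nm after 320 nm excitation. The 20-min minus 0-min signal was scaled between DMSO/no-enzyme wells and ADEP (5.8 microM final).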
gsp agonist = qHTS for Agonist of gsp, the Etiologic Mutation Responsible for Fibrous Dysplasia/McCune-Albright Syndrome: qHTS; Potency, µM (top dose mostly 76.9 µM), for inactives: at the highest dose activation (cAMP increase), usual class: activators; AID 624287, 2012; 340,000 tested, 0.13% active; gsp mutant cells, cAMP HTRF, 30 min; control for the full effect not named in the record; active = well fitted activation curve with a large enough effect; inconclusive = small, poorly fitted or top-dose-only effect, or another doubt; inactive = no such curve, though single readings can be large or run the other way; cell line not stated here;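 also: phosphodiesterase inhibitor Ro 20-1724 added with compounds to block cAMP breakdown; potency is read from the fitted curve at half-maximal effect; nearly all actives have a fitted effect of over 60% in size; about a fifth of the inactives were tested at one dose only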
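Cells stably selected in G418 were plated at 2000/well, grown 16-24 hr, then given compounds in DMSO with the PDE inhibitor […] (300 uM solution added) for 30 min at 37C; cAMP was read by HTRF.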
Sfp PPTase inh = qHTS Assay for Inhibitors of Bacillus subtilis Sfp phosphopantetheinyl transferase (PPTase); Biochemical Sfp PPTase activity, qHTS; Potency, µM, inactives show max response, negative = inhibition, usual class: inhibitors; 310,000 tested, 3.5% active; AID 1490, 2009; active = well fitted inhibition curve with a large enough effect; inconclusive = small, poorly fitted or top-dose-only effect, or another doubt; inactive = no such curve, though single readings can be large or run the other way;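 also: the enzyme is Sfp with the accession as filed and its product quenches rhodamine fluorescence; potency is read from the fitted curve at half-maximal effect; 0% = enzyme reaction without inhibitor and -100% = no enzyme wells; top concentration of the series not given in the record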
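Buffer: 50 mM Hepes-Na pH 7.6, 10 mM MgCl2, 0.01% Nonidet P-40, 0.01% BSA. Enzyme 15 nM, pre-exposed to compound 15 min; substrates then added and fluorescence change tracked over 30 min.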
gsp antagonist = qHTS for Antagonists of gsp, the Etiologic Mutation Responsible for Fibrous Dysplasia/McCune-Albright Syndrome: qHTS. gsp-mutant cells, cAMP HTRF, 30 min; control for the full effect not named in the record. Potency, µM (doses to about 76.9 µM), without a hit: at the top dose activity change, negative = inhibition, most hits filed as inhibitors. 340,000 tested, 0.4% active; active = falling curve of any shape with a large fitted effect; inconclusive = falling curve, mostly with a smaller effect; inactive = flat or rising curve; cell line not stated here;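 also: intracellular cAMP measured with PDE inhibitor Ro 20-1724 present during compound exposure; potency is read from the fitted curve at half-maximal effect; % is scaled to controls: 0 for no effect and ±100 for the full control effect; nearly all actives have a fitted effect of over 65% in size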
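Cells, 2000/well, grown 16–24 h in DMEM 10% FBS with 0.5 mg/ml G418, then compounds plus […] (300 uM addition stock), 30 min at 37C. cAMP read by HTRF (cAMP-d2 and anti-cAMP antibody-K in lysis buffer) after 30 min RT.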
D2 ag = Beta-Arrestin HTS for Positive Allosteric Modulators of the Human D2 Dopamine Receptor: Agonists; D(2) dopamine receptor (Homo sapiens), P14416; DiscoveRx PathHunter D2 beta-arrestin, luminescence, 90 min; 100% = 57 uM dopamine signal; activation, % (concentration not given with the values); 360,000 tested, 0.084% active; AID 624465, 2012; in the data active = activation above about 40%; inconclusive = about 15% to 40%; inactive = below about 15%; also: compound concentration not given in the record; the text of the record calls up to 30% inactive
Target sequence (P14416 whole entry, looked up): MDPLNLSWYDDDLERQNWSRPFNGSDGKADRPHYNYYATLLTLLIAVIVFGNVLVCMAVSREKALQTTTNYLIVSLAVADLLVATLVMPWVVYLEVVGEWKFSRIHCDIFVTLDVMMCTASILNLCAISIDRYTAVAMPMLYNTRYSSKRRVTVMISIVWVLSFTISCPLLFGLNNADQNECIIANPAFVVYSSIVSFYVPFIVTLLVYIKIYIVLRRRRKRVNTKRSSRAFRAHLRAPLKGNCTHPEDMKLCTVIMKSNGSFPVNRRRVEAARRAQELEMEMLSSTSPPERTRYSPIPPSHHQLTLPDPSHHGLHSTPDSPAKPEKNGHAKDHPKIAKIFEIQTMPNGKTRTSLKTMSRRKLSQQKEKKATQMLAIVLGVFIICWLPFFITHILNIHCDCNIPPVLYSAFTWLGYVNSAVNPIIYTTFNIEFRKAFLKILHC
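Agonist mode: compounds alone added to overnight-plated D2 PathHunter cells for 90 min at 37 C, with 57 uM final dopamine (EC100) defining full response. Beta-arrestin recruitment detected by chemiluminescent reagent, read after 1 h at ambient temperature.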
Menin MLL FP FL = qHTS Assay for Inhibitors Targeting the Menin-MLL Interaction in MLL Related Leukemias: Competition With Fluorescein Labeled MLL-derived Peptide; 290,000 tested, under 10 active; FP activity change, % at 61.4 µM; Fluorescence polarization, fluorescein-MLL peptide displacement from menin; inconclusive = falling polarisation curve, or a change in total fluorescence; inactive = total fluorescence flat and polarisation flat or rising; no compound was filed as active; the % refers to the polarisation; negative = inhibition;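 also: % of control where 0% means no effect; inhibitors lower the polarisation; unlabelled MLL peptide was the positive control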
Starred values were filed as active, the others as inactive; ? = inconclusive; . = not tested or not shown; & = joins results of further samples; [ ] = dose if it differs, or a comment.

SMILES | PINK1 expr mod | ClpP mod | gsp agonist | Sfp PPTase inh | gsp antagonist | D2 ag | Menin MLL FP FL
C=CCOc1ccccc1CNc1ccc2c(c1)OCCO2 | ? | . | 10%[15.4 µM] | -20% | ? | -2.2 | -2.2
CC(=O)Nc1ccc(-c2csc(NC(=O)C3CSC4(C)CCC(=O)N34)n2)cc1 (stereo unspecified) | 3.6% | 0.4% | -47%[inhibitor] | . | 3% | -2.0 | .
Cc1ccc(-c2cc(C(F)F)n3ncc(C(=O)Nc4c(C)nn(Cc5c(Cl)cccc5Cl)c4C)c3n2)cc1 | 0.5% | 1.4% | -16% | 5% | -3% | -2.7 | 2.9
Cc1nn(C(=O)CN2C(=O)c3ccccc3C2=O)c(C)c1Br | 4.7% | 1.2% | -24% | 21% | -15% | -4.7 | 2.1
COc1ccc(/C=C\c2onc(C)c2S(=O)(=O)N2CCC(C(=O)NCCC(C)C)CC2)cc1 | -1.1% | 15% | -74%[inhibitor] | 31% | -6% | 1.7 | 1.4
Cc1c(NC(=O)COC(=O)/C=C/c2cccc(Cl)c2)c(=O)n(-c2ccccc2)n1C | -0.6% | -1.9% | ? | . | -4% | -3.6 | .
CCc1ccccc1NC(=O)c1nnn(CC(=O)Nc2ccccc2C)c1N | 0.6% | -0.5% | 7% | 3% | 7% | -0.9 | 3.3
N#Cc1ccsc1NC(=O)COC(=O)CCCSc1nc2ccccc2s1 | 0.6% | -3.0% | 14% | 1% | -8% | 1.2 | -0.8
CC(=O)Nc1ccc(S(=O)(=O)NC(C)CCc2ccccc2)cc1 (stereo unspecified) | -0.4% | 1.0% | 12% | 5% | -6% | -4.7 | 0.5
COc1cc(Cl)c(C)cc1NC(=O)CCNC(=O)c1ccco1 | 0.3% | . | 12%[15.4 µM] | 11% | 0% | -4.8 | .
COc1ccc2[nH]c3c(c2c1)CCN1C(=O)N([C@@H](C)C(=O)NCCc2ccc(F)cc2)C(=O)[C@]31C | 1.6% | -4.5% | . | 9% | -16% | -4.5 | -6.2
FC(F)(F)c1cc(-c2ccccc2)nc(NCc2cccs2)n1 | ? | ? | -17% | 7% | -1% | -1.4 | 2.3
Cc1ccc(C(=O)NNC(=O)Cc2ccccc2)cc1 | 2.1%[38.3 µM] | -0.8% | -37%[inhibitor] | 10% | -1% | -2.3 | -1.7
CC(=O)C1=C(C)NC(SCC(=O)c2ccc(Cl)cc2)=C(C#N)C1c1ccco1 (stereo unspecified) | 1.4%[38.3 µM] | -3.8% | -37%[inhibitor] | 50µM* | -10% | -0.3 | 16
CCOC(=O)c1cnc(SCC(=O)N2CCN(c3ccccc3)CC2)nc1N | -5.3% | -23% | 29% | -7% | 5% | 2.5 | -1.8
Cc1c(C#N)c(O)[nH]c(=O)c1N=Nc1ccc(Cl)c(C(=O)O)c1 | -1.0% | -0.6% | ? | 13% | 8% | 3.8 | 13
O=c1[nH]nc(-c2ccc[nH]2)[nH]1 | 0.8% | -4.3% | 10% | . | . | -3.8 | .
Cc1ccc([N+](=O)[O-])c(-c2n[nH]c(=S)n2-c2cccc(Cl)c2)c1 | -1.0% | -1.9% | -3%[15.4 µM] | 4% | ? | 6.1 | -1.2
Cc1cc2ccccc2n1CCNC(=O)c1ccccc1 | -0.8% | -23% | ? | 50µM* | -9% | -11 | ?
COc1ccc(-c2c(-c3cc(OC)cc(OC)c3)n(C)c3ccc(-c4ccc5cc[nH]c5c4)cc23)cc1 | 3.3% | 4.0% | 22% | . | 4% | -2.5 | .
COc1ccccc1CC(=O)NC1CC(C)(C)NC(C)(C)C1 | -1.5% | 28µM* | 4%[15.4 µM] | 5% | 19% | -3.9 | -1.0
Cc1ccc(F)c(S(=O)(=O)NC(=O)C2(C)CCN2C(=O)COc2ccc(Cl)cc2)c1 (stereo unspecified) | 0.9% | 1.3% | . | . | . | 8.5 | .
CC(NC(=O)COc1ccc(Br)cc1)C(=O)O (stereo unspecified) | 0.8%[38.3 µM] | 0.8% | 0% | 6% | 5% | -3.7 | 2.3
CC(=O)NCCC(=O)Nc1nc(-c2ccc3ccccc3c2)cs1 | 8.0% | . | -17%[15.4 µM] | 11% | . | -0.4 | 1.4
COc1cccc(OC)c1C(=O)NC(=S)Nc1ccc2oc(=O)ccc2c1 | -0.4% | 1.0% | -26% | 0% | 1% | 1.0 | 6.3

The results go on:
SMILES | PINK1 expr mod | ClpP mod | gsp agonist | Sfp PPTase inh | gsp antagonist | D2 ag | Menin MLL FP FL
CN(C)c1ccncc1C(=O)Nc1ccc(F)cc1F | -2.0% | . | 14% | 7% | 4% | 3.4 | 2.3
Cc1ccc(S(=O)(=O)NCC(=O)OCC(=O)c2cccs2)cc1 | 0.7% | -1.1% | 20% | 13% | 17% | -4.0 | -1.5
COc1ccccc1C(=O)OCC(=O)NC(=O)NC1CCCC1 | 1.0% | -11% | 27% | . | 1% | 0.1 | .
Cc1cc(C)c[n+](-c2[nH]c(=O)sc2/C=N/N=C(\[O-])c2cccnc2)c1 | 0.3% | -0.6% | 23% | -15% | 1% | -1.6 | -23
Cc1ccc(C)c(N2C(=O)CC(Cc3ccccc3)C2=O)c1 (stereo unspecified) | -0.1% | . | -44%[inhibitor] | 19% | 6% | -2.2 | 3.2
COc1ccccc1Oc1ccc(N2CC(C(=O)OCC(=O)c3ccccc3)CC2=O)cc1 (stereo unspecified) | -0.5% | 1.6% | -7% | -7% | -12% | -3.2 | .
COc1ccc(OC)c(NC(=O)CCC(=O)Nc2nnc(C(F)(F)F)s2)c1 | -1.4% | 0.6% | -40%[inhibitor] | 1% | -13% | -3.3 | 4.6
COCCC(=O)N1CCCC(C(=O)c2ccc(C(F)(F)F)cc2)C1 (stereo unspecified) | 0.3% | . | -48%[inhibitor] | 2% | 9% | -1.5 | -0.1
Cc1ccc(S(=O)(=O)/C(C#N)=C/c2c(N3CCOCC3)nc3ccccn3c2=O)cc1 | 1.3% | 0.9% | ? | -4% | -18% | -2.5 | -0.1
CC1CCCC(NC(=O)COC(=O)COc2ccc(Cl)cc2)C1C (stereo unspecified) | -1.1% | 1.3% | -43%[inhibitor] | 6% | 9% | -2.3 | 2.0
O=C1CN(C(=O)CSc2nc(-c3ccccc3)cs2)c2ccccc2N1 | -0.1% | 1.6% | -2% | -7% | -4% | -0.9 | -1.7
CC(C)CCn1cnc2c1c(=O)[nH]c(=O)n2Cc1ccccc1 | -0.1% | -5.5% | -3% | 22% | 5% | -0.7 | 1.1
CCOc1cc(CNCC(O)c2ccccc2)cc(Cl)c1OC (stereo unspecified) | 5.3% | 1.6% | ? | 10% | 7% | -1.5 | -3.2
Cc1ccccc1NC(=O)c1cccc(NC(=O)c2ccccc2C(=O)O)c1 | -1.0% | . | -6%[15.4 µM] | . | -2% | -6.5 | .
CCN(CC)CCN1C(=O)C(O)=C(C(=O)c2cccs2)C1c1ccc(C)o1 (stereo unspecified) | -1.1% | -2.0% | ? | -3% | 7% | -3.8 | 0.6
CCN1CCN(CCCNC(=O)c2cn(CCOC)c(=O)c3c2c2ccccc2n3C)CC1 | -2.8%[38.3 µM] | 3.2µM* | -4% | 17% | -3% | -1.7 | -0.9
Cc1ccc(-n2ncc(C(=O)O)c2C2CCN(C(=O)OC(C)(C)C)CC2)cc1 | 0.2% | -0.2% | ? | 9% | -23% | -1.0 | -0.8
CCC(C)NC(=O)c1nn(C)c(=O)c2ccccc12 (stereo unspecified) | -0.7% | . | -10%[15.4 µM] | 9% | 12% | 1.5 | 0.8
COc1ccc([N+](=O)[O-])cc1C1NN=C(c2cccc3ccccc23)S1 (stereo unspecified) | 4.2% | -4.8% | 8% | 16% | 10% | -2.1 | 3.1
COc1ccccc1OCCCn1c(C)c(C#N)c2ccccc21 | -0.6% | -0.3% | 1% | -3% | ? | -3.5 | 0.0
O=c1[nH]c(Nc2ccc3c(c2)OCCO3)nnc1Cc1ccc(Cl)cc1 | 11% | . | 20% | 21% | -1% | -1.1 | -3.4
COc1ccccc1Oc1ccc(NC(=O)c2ccccc2C)cc1 | 3.2% | -0.3% | -57%[inhibitor] | 9% | 2% | 3.8 | 1.1
CCn1c2ccccc2c2cc(CNCc3ccc(OC)cc3OC)ccc21 | -2.3% | -8.7% | 13% | 22µM* | -13% | 3.2 | -4.1
CCN1C(=NCCCOC(C)C)N[C@@H](c2ccccc2)[C@H](C(=O)OC)[C@H]1C | -1.6% | -2.6% | 3% | 9% | 6% | -2.1 | 1.1
O=C(CNCc1ccccc1Cl)NCc1ccco1 | -1.7% | . | 7% | ? | 6% | 9.2 | 6.6

Next structures follow:
SMILES | PINK1 expr mod | ClpP mod | gsp agonist | Sfp PPTase inh | gsp antagonist | D2 ag | Menin MLL FP FL
O=C(CCC(=O)Nc1ccccc1)NNC(=O)C(c1ccccc1)c1ccccc1 | 11% | 0.7% | -10% | 4% | 1% | -0.9 | 4.1
CC(=O)OCC(COC(C)=O)OC(C)=O | 1.6% | -2.3% | . | 17%&3% | 35µM* | -3.1 | -4.2&-1.9
O=C(O)CCC(=O)NNC(=O)c1ccc(-c2ccccc2)cc1 | 1.5% | 1.9% | -44%[inhibitor] | 8% | 7% | -3.8 | 4.7
CC(C)OC(=O)Cn1c(=O)sc2ccccc21 | 6.1% | -0.1% | 4% | 6% | -4% | 1.7 | 5.5
COc1cc(/C=C/c2nnc3c4ccccc4ncn23)cc(OC)c1OC | -3.3% | ? | -2% | 6% | 3% | 2.7 | 2.0
COc1ccccc1C(=O)N1CCCC(C)(C(=O)NS(=O)(=O)C2CC2)C1 (stereo unspecified) | 0.7% | -8.2% | . | . | . | -2.2 | .
